# Screens: PubChem BioAssay, Broad Institute
# ALR inh = inhibitors of human sulfhydryl oxidase ALR; 290,000 tested, 3.8% active; inhibition, % (concentration not given with the values); AID 485317; purified ALR, DTT oxidation, H2O2 HRP-luminol luminescence; P55789;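 active = mean and each replicate at 75% or more; inconclusive = only one of the two met; inactive = neither met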;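 also: stock transfer was 7.5 nL into about 7.5 µL; 0% = neutral wells and 100% = wells with inactivated enzyme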
# Target sequence (P55789 whole entry, looked up): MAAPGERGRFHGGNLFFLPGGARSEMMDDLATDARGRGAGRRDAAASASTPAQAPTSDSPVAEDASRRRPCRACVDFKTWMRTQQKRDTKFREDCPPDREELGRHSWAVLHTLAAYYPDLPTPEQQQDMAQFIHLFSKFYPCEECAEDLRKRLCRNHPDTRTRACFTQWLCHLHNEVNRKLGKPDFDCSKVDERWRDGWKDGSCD
# FGF22 binding = binders of recombinant human FGF22 by thermal shift | calls only at 9.99 µM | 340,000 tested, 1.5% active | SYPRO orange fluorescence; percent of sucrose octasulfate shift, DMSO zero;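 active = melting point raised past a set limit in the mean and every replicate; inconclusive = no clear call; three in four hits are not shown here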
# Target sequence (Q9HCT0 whole entry, looked up): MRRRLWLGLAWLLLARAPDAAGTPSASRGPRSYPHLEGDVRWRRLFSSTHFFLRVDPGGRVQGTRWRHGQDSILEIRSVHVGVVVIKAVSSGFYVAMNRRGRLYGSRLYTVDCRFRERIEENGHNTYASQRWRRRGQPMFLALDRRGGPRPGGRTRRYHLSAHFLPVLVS
# RanGTP-Imp inh = disruptors of Ran-importin-beta complex formation – biochemical, FRET, CFP-Ran, YFP-importin-beta, homogeneous, primary screen; cell-free CFP-Ran/YFP-importin-beta FRET ratio; inhibition, % (test concentration not listed); 300,000 tested, 1.1% active; AID 2216;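 active = most replicates above 15%; inconclusive = exactly half above 15%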;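 also: 0% = DMSO wells and 100% = Ran loaded with GDP instead of GTP; wells of about 40 µL received 100 nL stock; the first replicate is given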
# Beta cell apopt = blocks beta cell apoptosis; INS-1E cytokine-induced death, ATP luminescence, 48 h; percent of positive-control rescue, neutral wells zero; protection from apoptosis, % (concentration not given with the values); 300,000 tested, 0.8% active; AID 435005;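 active = all replicates at 75% or more, or half of them and the mean; inconclusive = half reach 75% but not the mean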;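 also: 0% = cytokine-treated negative control wells and 100% = positive control rescue; higher means more ATP so stronger rescue from cytokine killing; wells of about 40 µL received 100 nL stock; the first replicate is given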
# AF4-AF9 inh = blocks AF4 peptide binding to human AF9. AlphaScreen, biotin-AF4 peptide binding to FLAG-AF9. 350,000 tested, 0.47% active. inhibition, % at 10 µM;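 active = every replicate reaching a set inhibition limit, whatever the replicate mean, cut at about 25% in these data; inconclusive = mean inhibition reaches that limit but some replicates miss it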;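 also: 0% = plate neutral control median and 100% = total signal loss; the record names both 10 and 1 µM as test concentration; the first replicate is given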
# Target sequence (P42568 whole entry, looked up): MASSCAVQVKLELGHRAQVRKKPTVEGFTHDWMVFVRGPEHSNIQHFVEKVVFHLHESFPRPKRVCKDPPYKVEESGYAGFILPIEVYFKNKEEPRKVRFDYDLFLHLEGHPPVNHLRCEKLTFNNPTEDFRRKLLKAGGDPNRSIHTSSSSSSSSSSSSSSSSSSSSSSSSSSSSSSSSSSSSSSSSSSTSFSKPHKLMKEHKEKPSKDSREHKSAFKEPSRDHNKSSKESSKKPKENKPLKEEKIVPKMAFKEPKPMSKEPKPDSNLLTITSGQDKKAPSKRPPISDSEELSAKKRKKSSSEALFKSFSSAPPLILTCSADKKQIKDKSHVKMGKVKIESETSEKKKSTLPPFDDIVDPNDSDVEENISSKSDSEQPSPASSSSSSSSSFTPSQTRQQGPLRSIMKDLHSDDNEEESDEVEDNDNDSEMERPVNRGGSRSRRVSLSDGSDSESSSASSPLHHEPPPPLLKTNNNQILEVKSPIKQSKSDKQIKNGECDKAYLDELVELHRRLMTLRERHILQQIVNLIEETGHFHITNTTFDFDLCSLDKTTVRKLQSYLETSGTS
# Ecoli rRNA inh = selective bacterial rRNA inhibition in E. coli. E. coli WT GFP vs humanized-ribosome RFP mutants, fluorescence, 24 h; hits give low values; DMSO median 0, no signal -100. GFP signal change (wild-type ribosome), % (concentration not given with the values). 350,000 tested, 1.6% active;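 active = significant combined selectivity score with lowered wild-type GFP, culture density cut under 30%, mutant RFP and density less affected; inactive = any of these conditions unmet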; also: one replicate is shown; some compounds called inactive have numbers as strong as hits
# Calb FLC = affects C. albicans growth with fluconazole | C. albicans CaCi-2 (fluconazole-resistant clinical isolate) + fluconazole, Alamar Blue growth, 48 h | growth inhibition, % (test concentration not listed) | 300,000 tested, 0.57% active;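 active = most replicates above 75%; inconclusive = exactly half above 75%; inactive = most below 75%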;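 also: all wells also contain fluconazole at 8 µg/ml as a sub-toxic cotreatment; 0% = median of DMSO wells and 100% = median of geldanamycin control wells; wells of about 8 µL received 7.5 nL stock; the first replicate is given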
# T cruzi repl = T. cruzi replication inhibition; T. cruzi beta-gal in NIH3T3, luminescence, 90 h; inhibition, % (no concentration beside the values); 300,000 tested, 1.4% active; AID 1885;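 active = mean inhibition across valid replicates above about 55%, limit read from the data; inconclusive = mean below that limit but half or more replicates reach it; inactive = mean below it, under half of replicates reach it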;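 also: signal also drops with host cell toxicity which is not excluded here; 0% = plate median of DMSO wells and 100% = zero luminescence signal; higher percent means less beta-gal luminescence so fewer parasites; stock transfer was 50 nL into about 50 µL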
# Ecoli rRNA inh OD600 = second read-out of Ecoli rRNA inh, no call of its own (marks repeat the call); OD600 change, %; measured here: OD600 growth;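 optical density of the mix in the first replicate; 0 = DMSO median and -100 = no signal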
# Ecoli rRNA inh RFP = recorded beside Ecoli rRNA inh, whose call it bears; RFP signal change, %; measured here: RFP humanized mutant strains;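 first replicate; 0 = DMSO median and -100 = no signal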
# * = called active by the depositor; i = inactive; u = inconclusive; x = no result given.
mol,AF4-AF9 inh,Beta cell apopt,ALR inh,Calb FLC,FGF22 binding,Ecoli rRNA inh RFP,Ecoli rRNA inh,T cruzi repl,Ecoli rRNA inh OD600,RanGTP-Imp inh
O=C(Cc1ccccc1[N+](=O)[O-])NNC(=O)Nc1ccc2c(c1)OCO2,-6.7,-2,-1,-14,i,-1.1,0,-2,-5,-2.2
Cc1ccc(NC(=O)c2cccc(S(=O)(=O)N(C)C3CCCCC3)c2)nc1,1.3,x,-2,-11,i,3.8,-13,14,-19,-0.1
COc1cc(C(=O)NCc2nnc(SCC(=O)NCc3ccco3)o2)cc(OC)c1OC,-2.5,0,-2,u,i,0.3,2,-20,4,1.8
CCS(=O)(=O)c1nc(S(=O)(=O)c2ccc(Cl)cc2)c(NCCOC)s1,-1.4,x,-15,-11,i,-1.3,2,12,3,-0.2
CC1CCCC(C)N1C(=O)CSc1nnnn1-c1cccc2c1CCCC2 (stereo not drawn),x,10,-3,1,x,8.8,-17,33,-20,-1.6
Clc1ss/c(=N\c2ccccn2)c1Cl,x,-9,12,57,x,x,x,7,x,1.2
FC(F)(F)c1cc(N2CCOCC2)nc(-c2ccccc2)n1,-6.6,-6,-16,-12,i,8.4,-6,6,-17,-2.1
O=C(O)CC(C(=O)N(c1ccccc1)c1ccccc1)N1CCOCC1 (stereo not drawn),x,-12,-16,-4,x,x,x,-12,x,-1.0
CC(=O)c1cccc(OCc2cc(C(=O)N(C)CCc3cnn(C)c3)no2)c1,-1.3,-1,-7,0,i,3.3,9,-7,7,-0.2
COc1ccccc1CNC(=O)c1cnccn1,x,-4,2,-6,x,x,x,4,x,u
NC(=S)N/N=C/c1coc2ccc(O)cc2c1=O,9.8,-10,22,-6,i,2.2,4,-1,-1,1.8
CC(C)(O)C#Cc1ccc(CN2CCCC(CNC(=O)c3ccco3)C2)cc1 (stereo not drawn),-0.4,x,-15,-16,i,2.0,2,17,4,0.7
Cc1ccc2oc(-c3cccc(NC(=O)c4ccc(Br)o4)c3)nc2c1,x,-4,-8,-1,x,x,x,-16,x,2.9
Nc1ccc(O)c2c(=O)cc(-c3ccccc3Cl)oc12,2.2,3,17,-1,i,0.9,5,31,11,-2.3
Cc1cc(C)c2nc(-c3cccc(Cl)c3)c(C)c(C(=O)N3CCOCC3)c2c1,4.0,x,-37,1,i,-0.1,1,27,-1,-4.9
CC1=CC(=O)[C@H]2C(C)(C)CCC[C@]2(C)[C@@]1(O)CO,-2.3,-4,-46,1,i,18,-2,-14,3,u
N/C(Cc1ccc([N+](=O)[O-])cc1)=N\OC(=O)Cc1ccccc1,-6.1,-1,27,6,i,0.1,12,12,8,0.5
Cc1ccc(NC(=O)NCc2nc3ccccc3n2C)cc1,-1.6,3,1,-7,i,-1.1,3,-11,3,-0.3
CCC(C)c1nc2c(c(N3CCC3=O)c1-c1ccccc1)CCCC2 (stereo not drawn),-0.3,-7,-31,-1,i,-2.2,-20,-1,-34,-0.2
COC(=O)C1=NN[C@H](C(=O)OC(C)(C)C)[C@H]1c1ccccc1,2.7,-6,x,1,i,0.1,1,-1,3,3.8
O=C(Nc1ccc2oc(-c3ccccc3)nc2c1)c1cc(-n2cnnc2)ccc1Cl,-1.8,10,-5,-22,i,3.0,9,2,17,-2.6
COc1ccc(N2CC(C(=O)NCCc3ccc(Cl)cc3)CC2=O)cc1 (stereo not drawn),-4.6,3,-1,8,i,-1.2,4,0,2,1.7
O=C(Nc1ccccc1)N(C1=NCCC1)c1ccc(OC(F)F)cc1,x,-5,3,13,x,x,x,29,x,0.9
CC(OC(=O)c1ccc2c(c1)NC(=O)CS2)C(=O)c1ccc(F)cc1 (stereo not drawn),0.0,-2,-10,x,x,1.1,-18,x,-20,x
S=c1[nH]nc(-c2ccco2)n1/N=C/c1ccc(Cl)cc1,3.8,-5,x,13,i,2.1,-14,12,-5,2.6
CCN(C(=O)CSc1nnc(Nc2ccccc2)s1)C1CCS(=O)(=O)C1 (stereo not drawn),-1.8,5,-2,-16,i,0.6,5,4,6,1.0
COc1cccc(/C=N/NC(=O)CN(C2=NS(=O)(=O)c3ccccc32)c2ccccc2)c1,x,-5,-6,-3,x,x,x,0,x,0.9
CCC(c1nnnn1CCOC)N(Cc1cc2c(C)cc(C)cc2[nH]c1=O)CC1CCCO1 (stereo not drawn),1.9,-5,-2,-1,i,5.8,13,10,9,1.8
Cc1ccc(Nc2nc3ccccc3n3cnnc23)cc1C,-3.5,-6,-26,1,i,5.6,19,1,-2,1.9
O=C(c1c(F)cccc1F)N1CCCC1,-1.9,1,0,-19,i,1.3,24,-6,15,1.6
COc1ccc(C(CC(=O)O)NC(=O)COc2cc(C)ccc2C)cc1OC (stereo not drawn),-6.2,-3,4,-11,i,0.0,13,-6,8,-2.1
CC(=O)Nc1cccc(NC(=O)CSc2nc(=O)n3cccc(C)c3n2)c1,-1.2,x,-13,-3,x,-1.3,4,-3,4,0.6
C[n+]1cn(Cc2cc(Cl)ccc2OC(F)F)c2ccccc21,-1.6,2,-52,-16,i,-8.0,5,-2,0,0.0
Cc1c(-c2ccccc2)sc(Br)c1C(=O)N1CCOCC1,x,-4,-4,4,x,x,x,-17,x,0.8
O=S(=O)(Nc1nc2ccccc2nc1NCc1ccco1)c1cccs1,x,0,72,3,x,x,x,-12,x,-2.0
O=C(Oc1ccc(C(=S)N2CCOCC2)cc1)c1cccc([N+](=O)[O-])c1,-2.2,0,38,-7,i,6.1,9,-9,12,1.8
O=C(COc1cc(F)ccc1[N+](=O)[O-])Nc1cccc(Br)c1,-3.2,-6,0,-3,i,0.5,10,-21,7,-16
N#Cc1ccccc1/C=N/Nc1nc(-c2ccccc2)c2cc(Br)ccc2n1,x,10,1,3,x,x,x,30,x,-0.4
COc1ccnc(CSC(N)=Nc2ccc(F)cc2)c1,x,1,48,0,x,x,x,-5,x,-0.6
Cc1ccc(S(=O)(=O)N2CCC(NC(=O)c3ccccc3)CC2)cc1,0.4,-1,x,0,i,-0.7,6,-6,9,-2.4
Clc1ccc(OCc2cc(-c3ccccc3)no2)c(Cl)c1,x,-11,-4,-23,x,x,x,6,x,0.5
CC(=O)c1cccc(NC(=O)c2cc(-c3ccc(F)cc3)on2)c1,-3.4,4,x,-3,i,-3.7,17,-7,17,0.1
Cc1cc(C)cc(N(CC(=O)NC(C)C)C(=O)CCC(=O)Nc2ccccn2)c1,-0.6,-6,-5,5,i,1.1,11,-1,6,-1.1
CC(=O)N/N=C(\N)c1nonc1N,-5.1,-6,-8,3,i,-2.1,11,-9,10,0.5
CCCN(C(=O)C(C)Oc1cccc(Cl)c1)c1c(N)n(Cc2ccccc2)c(=O)[nH]c1=O (stereo not drawn),-0.2,x,4,4,i,5.6,18,-12,14,3.7
COc1ccccc1C(c1nnnn1C(C)(C)C)N1CCN(Cc2ccncc2)CC1 (stereo not drawn),x,-7,-6,4,x,x,x,8,x,-0.7
COc1ccccc1-n1nc(C)c(-c2ccccc2)c1N,3.6,1,26,-1,i,-1.8,-2,-12,11,1.5
COc1ccc(N2CCN(C(=O)CN3CCN(c4nc(-c5ccc(F)cc5)cs4)CC3)CC2)cc1,27*,45,x,20,i,x,x,3,x,1.8
COc1cccc(NC(=O)CCNS(=O)(=O)c2ccc3c(c2)CC(C)N3C(=O)C2CC2)c1 (stereo not drawn),-12,0,-4,-2,i,5.3,-8,8,-7,-0.9
CCN1CCN(C(c2cccs2)C(C)NS(=O)(=O)c2ccc(F)cc2)CC1 (stereo not drawn),-0.5,-5,1,-2,i,-1.1,-2,-2,4,-0.1
O=C(COc1ccc2oc(-c3ccco3)cc(=O)c2c1)N1CCCCC1,-24,-8,-7,1,i,-7.7,-4,0,0,u
O=C(CCCN1C(=O)C2CC=CCC2C1=O)Nc1ccccc1F (stereo not drawn),-2.0,0,-19,-1,i,5.0,8,-7,10,0.5
CC(C)(C)NC(=O)COC(=O)c1cc(F)c(F)cc1Cl,x,1,2,-2,x,x,x,-14,x,-1.1
N#CCC(=N)N1CCN(c2cccc(Cl)c2)CC1,x,-2,-6,-9,x,x,x,4,x,-2.9
COc1ccc(C(=O)NCCNC(=O)c2ccc(OC)cc2)cc1,-0.8,-9,2,-15,i,1.7,6,-12,10,-3.9
Brc1cccc(/C=N\n2cnnc2)c1,x,-2,-18,4,x,x,x,-6,x,-1.4
O=C(Nc1ccc(Cc2ccc(NC(=O)C3CC3)c(O)c2)cc1O)C1CC1,x,-6,2,-12,x,x,x,4,x,-1.8
O=C1CCC(=O)N(O)CCCCCNC(=O)CCC(=O)N(O)CCCCNC(=O)CCC(=O)N(O)CCCCCN1,-12,x,66,3,i,x,x,-8,x,-1.7
O=c1[nH]cnc2c1c(-c1ccccc1)cn2-c1ccc(F)cc1,8.7,19,3,-2,i,11,12,-5,5,0.6
CCC(C(=O)N1CCOCC1)n1nc(C)n2c(cc3cc(C)ccc32)c1=O (stereo not drawn),1.0,-4,0,-4,i,-0.2,-8,-15,-8,4.2

# Following part
mol,AF4-AF9 inh,Beta cell apopt,ALR inh,Calb FLC,FGF22 binding,Ecoli rRNA inh RFP,Ecoli rRNA inh,T cruzi repl,Ecoli rRNA inh OD600,RanGTP-Imp inh
Cc1nc(C(=O)NNC(=O)c2c(-c3c(Cl)cccc3Cl)noc2C)cs1,1.1,86*,-4,-4,i,0.9,11,-11,-2,3.4
Cc1ccc(S(=O)(=O)N2CCSC2=Nc2ccccc2)cc1,x,-5,-2,9,x,x,x,-4,x,-0.6
CC(Oc1ccccc1)C(=O)Nc1ccc(S(=O)(=O)Nc2nccs2)cc1 (stereo not drawn),0.9,-4,-14,4,i,-2.2,0,0,-15,0.6
CCN(Cc1ccc(O)cc1)CC1CCCN(CCc2cccc(F)c2)C1 (stereo not drawn),3.9,-4,x,-4,i,1.9,14,61*,7,2.3
CCN1CCCC1CNC(=O)C1c2ccccc2C(=O)N(CCOC)C1c1ccc(F)cc1 (stereo not drawn),x,-1,16,-10,x,x,x,-27,x,6.1
CC(=O)c1ccc(S(=O)(=O)NC2CC(=O)N(c3ccc4c(c3)OCCO4)C2)cc1 (stereo not drawn),0.5,x,-8,-2,i,-1.7,6,0,1,-0.8
O=C(c1ccncc1)N1CCN(S(=O)(=O)c2ccccc2Br)CC1,-3.4,-21,-4,x,i,-1.4,4,x,12,x
Cc1cc(S(=O)(=O)NCCCN2CCOCC2)c(C)cc1Cl,-0.9,-1,1,7,i,1.1,13,0,2,-1.0

# A portion of the library, so the mix of outcomes need not match the whole.
